EBI2 block: EBI2 (human) antagonism | EBI2 beta-arrestin recruitment, luminescence, 7a,25-OHC stimulated | actives 0.81% (n = 360,000) | inhibition, % at 5 µM | AID 651636; in the data active = inhibition above about 38%;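 note: enzyme fragment complementation signal reports receptor beta-arrestin coupling in cells; 0% = agonist plus DMSO wells and 100% = wells without agonist; some results beyond the cut were filed as inactive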
Target sequence (P32249 whole entry, looked up, the tested form may be a part): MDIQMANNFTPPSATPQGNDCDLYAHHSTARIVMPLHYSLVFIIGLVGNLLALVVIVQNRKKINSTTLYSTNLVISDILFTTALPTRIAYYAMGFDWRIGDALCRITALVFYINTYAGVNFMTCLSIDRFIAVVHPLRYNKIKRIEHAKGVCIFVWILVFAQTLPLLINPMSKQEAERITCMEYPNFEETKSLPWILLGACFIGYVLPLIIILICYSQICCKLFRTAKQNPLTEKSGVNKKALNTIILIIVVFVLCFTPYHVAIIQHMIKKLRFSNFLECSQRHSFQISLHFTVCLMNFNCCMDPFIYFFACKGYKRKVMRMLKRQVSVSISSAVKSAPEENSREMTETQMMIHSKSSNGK
Mdm2-MdmX inh: inhibitors of human Mdm2/MdmX interaction; inhibition, % at 8 µM; actives 3% (n = 330,000); SaOS-2 split-luciferase Mdm2/MdmX complementation, luminescence; O15151+Q00987;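 active = inhibition of at least 50% at 8 µM in the primary screen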
XBP1 UPR activ: activators of adaptive arm of unfolded protein response (XBP1); CHO-XBP1 luciferase reporter, IRE1-XBP1 UPR activation, luminescence; percent of tunicamycin response, DMSO as zero; activation, % at 20 µM; actives 0.33% (n = 330,000); AID 463104;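 active = versus positive control, 20 µM dose yields 30% or more activation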;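 note: 100% = tunicamycin at 10 µg/mL and 0% = DMSO only wells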
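incubation = overnight seeding at 37 °C, 6 h compound treatment at 37 °C | assay system = CHO-XBP1 cells stably carrying IRE1-XBP1-driven luciferase reporter | input = 1000 cells per well | detection = luciferase luminescence | dosing = single point, 20 µM final compound, 1% DMSO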
tim23-1 inh: growth inhibitors of tim23-1 mutant yeast; S. cerevisiae tim23-1 growth, BacTiter-Glo luminescence, 24 h; inhibition, % at 20 µM; actives 1.3% (n = 330,000); AID 463212;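 active = growth inhibition of the mutant yeast at or above 50%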;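 note: temperature-sensitive mutant grown at 25 °C; plate controls were DMSO-treated mutant yeast for no effect and medium wells lacking yeast for full effect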
CHOP UPR activ: apoptotic UPR (CHOP) activation | CHO-CHOP luciferase reporter, luminescence; percent of tunicamycin response over DMSO baseline | activation, % at 10 µM | actives 0.34% (n = 330,000) | AID 449763;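 active = at 10 µM dose, activation of 40% or more, normalized to positive control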;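 note: 100% = tunicamycin at 10 µg/mL and 0% = DMSO alone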
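Assay system: CHO-CHOP cells, stable luciferase reporter of PERK-eIF2a-CHOP signalling / Buffer or medium: F12 plus 10% serum / Compound dosing: one dose, 10 µM in 0.5% DMSO / Times: 6 h compound treatment, 37 °C / Technique: luciferase luminescence / Read-out: % reporter activation, DMSO baseline versus tunicamycin full activation / Benchmarks: tunicamycin and DMSO controls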
* hit, by the source's call; ! = not confirmed by another sample. These rows are one share of the data; count on the stated rates, not on these rows.

SMILES	EBI2 block	Mdm2-MdmX inh	XBP1 UPR activ	tim23-1 inh	CHOP UPR activ
C/C(=N\NC(=O)c1ccccc1OCc1ccc(F)cc1)c1ccccn1	11	93*	18	4	109*
O=C(Nc1nnc(-c2ccccc2)o1)c1ccc(Cl)cc1	4	42	4	19	1.0
Cc1ccc2c(c1)C(CCN)C(=O)N2Cc1ccccc1 (stereo not drawn)	52*	4	-1	19	-1.2
CC1Nc2ncnc(N3CCN(c4ccccc4)CC3)c2N(Cc2ccccc2)C1=O (stereo not drawn)	43	-7	0	-9	0.8
CC1Nc2ncnc(N3CCN(c4ccccc4)CC3)c2N(Cc2ccc(Cl)cc2)C1=O (stereo not drawn)	48*	44	0	35	-1.3
O=C1N[C@@H](c2ccccc2)COC(=O)[C@H](Cc2ccc(F)cc2)CC/C=C/C[C@H]1CC(=O)N(CCO)Cc1ccccc1	10	13	-3	23	3.2
CCC1Nc2ncnc(N3CCCCC3)c2N(Cc2ccc(Br)cc2)C1=O (stereo not drawn)	-9	-3	0	33	-0.8
O=C1C(Cc2ccccc2)Nc2ncnc(N3CCCCC3)c2N1Cc1ccc(Br)cc1 (stereo not drawn)	63*!	15	0	41	1.8
O=C1N[C@@H](c2ccccc2)COC(=O)[C@H](Cc2ccc(F)cc2)CC/C=C/C[C@@H]1CC(=O)N(CCO)Cc1ccccc1	10	33	1	9	5.6
Cc1cc(N/N=C/c2ccccc2[N+](=O)[O-])nc(-n2nc(C)cc2C)n1	22	53*	12	6	121*
O=C(N/N=C/c1ccccn1)c1cccc([N+](=O)[O-])c1	-14	16	1	-28	3.3
Cc1ccccc1-n1c(SCC(=O)NCC2CCCO2)nc2c([nH]c3ccccc32)c1=O (stereo not drawn)	34	14	-3	17	0.1
CC1(C)CC(CC(=O)NC(=S)Nc2ccc([N+](=O)[O-])cc2)C(=O)O1 (stereo not drawn)	7	-5	1	2	1.7
O=C(C[C@H]1C/C=C/CC[C@H](Cc2ccc(F)cc2)C(=O)O[C@H](c2ccccc2)CNC1=O)NCCO	-8	-22	4	17	0.8
CCCCn1nnc(NC(=S)NC(=O)c2ccc(-c3cccc(Cl)c3Cl)o2)n1	8	23	2	23	0.0

3 entries out of the list above, arranged by their value in Mdm2-MdmX inh, falling.
SMILES	EBI2 block	Mdm2-MdmX inh
CCCCn1nnc(NC(=S)NC(=O)c2ccc(-c3cccc(Cl)c3Cl)o2)n1	8	23
CC1(C)CC(CC(=O)NC(=S)Nc2ccc([N+](=O)[O-])cc2)C(=O)O1 (stereo not drawn)	7	-5
CC1Nc2ncnc(N3CCN(c4ccccc4)CC3)c2N(Cc2ccccc2)C1=O (stereo not drawn)	43	-7

Compounds shown so far containing a carbonyl joined to an NH by a bond outside any ring, in the order listed:
SMILES	EBI2 block	Mdm2-MdmX inh	XBP1 UPR activ	tim23-1 inh	CHOP UPR activ
C/C(=N\NC(=O)c1ccccc1OCc1ccc(F)cc1)c1ccccn1	11	93*	18	4	109*
O=C(Nc1nnc(-c2ccccc2)o1)c1ccc(Cl)cc1	4	42	4	19	1.0
O=C(N/N=C/c1ccccn1)c1cccc([N+](=O)[O-])c1	-14	16	1	-28	3.3
Cc1ccccc1-n1c(SCC(=O)NCC2CCCO2)nc2c([nH]c3ccccc32)c1=O (stereo not drawn)	34	14	-3	17	0.1
CC1(C)CC(CC(=O)NC(=S)Nc2ccc([N+](=O)[O-])cc2)C(=O)O1 (stereo not drawn)	7	-5	1	2	1.7
O=C(C[C@H]1C/C=C/CC[C@H](Cc2ccc(F)cc2)C(=O)O[C@H](c2ccccc2)CNC1=O)NCCO	-8	-22	4	17	0.8
CCCCn1nnc(NC(=S)NC(=O)c2ccc(-c3cccc(Cl)c3Cl)o2)n1	8	23	2	23	0.0
